UUG fidelity: modulators of yeast start codon fidelity, primary screen, whole organism, S. cerevisiae, single point, plate reader. S. cerevisiae UUG-firefly luciferase reporter, luminescence/redox ratio. activity score, % at 18.7 µM. actives 0.13% (n = 350,000);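 active = replicate mean at a twofold rise or more, about +100% in these data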;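 note: firefly luciferase made from a UUG start codon reports start codon fidelity; reporter light over untreated wells divided by growth signal over untreated wells; some hits fall short of that in this replicate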
HIV Env fusion: inhibitors of HIV-1 Env-driven cell-cell fusion, primary screen, HeLa-JRFL effector, CEM21 target cells, luciferase | inhibition, % at 12.3 µM | actives 1.1% (n = 360,000) | AID 651610, 2012;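 active = mean replicate inhibition score of at least 50 and every replicate individually at or above 50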;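 note: 0% = plate neutral controls and 100% = maraviroc near 300 nM; one replicate is shown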
Active calls of the source: *; [ ] = another dose, or the depositor's remark. Only part of the results is shown; count on the stated rates, not on these rows.

Order of values – UUG fidelity | HIV Env fusion
> COc1ccc(NC(=O)Nc2ccc3c(c2)CC(=O)N([C@H](C)CO)C[C@@H](C)[C@@H](CN(C)S(=O)(=O)c2cccs2)O3)cc1
  -3 | -27[16.7 µM]
> C[C@@H]1CN([C@H](C)CO)C(=O)c2cc(C3=CCCC3)cnc2O[C@@H]1CN(C)Cc1ccccc1C(=O)O
  8 | -27[16.7 µM]
> C[C@@H]1CCCCO[C@@H](CN(C)Cc2ccc(C(F)(F)F)cc2)[C@H](C)CN([C@@H](C)CO)C(=O)c2cc(NC(=O)CCCN(C)C)ccc2O1
  24 | -21[16.7 µM]
> CN1CCN(C(=O)C[C@@H]2C[C@H]3c4cc(NC(=O)NC5CCCCC5)ccc4O[C@H]3[C@H](CO)O2)CC1
  4 | 31[16.7 µM]
> CC(C)CC#Cc1cnc2c(c1)C(=O)N([C@H](C)CO)C[C@H](C)[C@@H](CN(C)Cc1ccccn1)O2
  19 | 0[16.7 µM]
> CO[C@@H]1CN(C)C(=O)c2ccc(NC(C)=O)cc2OC[C@H](C)N(Cc2nccs2)C[C@H]1C
  -16 | 9[16.7 µM]
> C[C@H](CO)N1C[C@H](C)[C@@H](CN(C)Cc2ccccc2)Oc2c(NC(=O)c3ccc(-c4nccs4)cc3)cccc2C1=O
  1 | 12[16.7 µM]
> O=C(N[C@@H]1CC[C@@H](CCNS(=O)(=O)c2cccc(Cl)c2)O[C@@H]1CO)c1ccccc1
  -8 | -11[16.7 µM]
> COC(=O)C[C@@H]1CC[C@H]2[C@H](COc3ccc(NC(=O)C4CC4)cc3C(=O)N2C)O1
  11 | -32[16.7 µM]
> COc1ccc(NC(=O)Nc2ccc3c(c2)C(=O)N([C@@H](C)CO)C[C@@H](C)[C@H](CN(C)C(=O)NC(C)C)OCCCC[C@@H](C)O3)cc1
  14 | 31[16.7 µM]
> COc1ccc(S(=O)(=O)N(C)C[C@@H]2Oc3ccc(NS(=O)(=O)c4ccccc4)cc3C(=O)N([C@H](C)CO)C[C@@H]2C)cc1
  -7 | 10[16.7 µM]
> C[C@@H]1CCCCO[C@@H](CN(C)S(=O)(=O)c2ccc(F)cc2)[C@@H](C)CN([C@@H](C)CO)C(=O)c2cc(NC(=O)NC3CCCCC3)ccc2O1
  2 | 3[16.7 µM]
> CS(=O)(=O)Nc1ccc2c(c1)[C@H]1C[C@@H](CC(=O)NCCN3CCCCC3)O[C@H](CO)[C@H]1O2
  -16 | -2[16.7 µM]
> C[C@@H]1CCCCO[C@H](CN(C)C(=O)C2CCCCC2)[C@H](C)CN([C@H](C)CO)C(=O)c2cc(NS(=O)(=O)c3cccs3)ccc2O1
  18 | 10[16.7 µM]
> C[C@@H]1CN([C@H](C)CO)C(=O)c2cccc(NC(=O)Nc3ccc(F)cc3)c2O[C@@H]1CN(C)S(C)(=O)=O
  4 | 13[16.7 µM]
> C[C@@H]1CN([C@H](C)CO)C(=O)c2cc(NC(=O)Nc3cccc4ccccc34)ccc2O[C@H]1CN(C)C(=O)Nc1cccc2ccccc12
  2 | 13[16.7 µM]
> CCC(=O)N[C@H]1C=C[C@@H](CC(=O)NCc2ccccc2OC)O[C@@H]1CO
  -18 | 7[16.7 µM]
> C[C@@H]1CN([C@H](C)CO)C(=O)c2cc(NC(=O)CCCN(C)C)ccc2O[C@H]1CN(C)Cc1ccccc1
  -3 | 14[16.7 µM]
> Cc1noc(C)c1NC(=O)N(C)C[C@H]1OCCCC[C@@H](C)Oc2ccc(NC(=O)c3ccncc3)cc2C(=O)N([C@H](C)CO)C[C@H]1C
  -3 | 15[16.7 µM]
> CCCNC(=O)N[C@@H]1CC[C@H](CC(=O)NC2CCC2)O[C@H]1CO
  -7 | 14[16.7 µM]
> COCCNC(=O)C[C@@H]1CC[C@H](NC(=O)NC2CCCC2)[C@H](CO)O1
  -23 | 0[16.7 µM]
> C[C@H]1CN([C@@H](C)CO)C(=O)Cc2cc(NS(C)(=O)=O)ccc2O[C@@H]1CN(C)S(=O)(=O)c1ccccc1
  6 | -4[16.7 µM]
> C[C@@H]1CCCCO[C@H](CN(C)C(=O)Nc2ccc3c(c2)OCO3)[C@H](C)CN([C@H](C)CO)C(=O)c2cc(NS(=O)(=O)c3cccs3)ccc2O1
  -5 | -7[16.7 µM]
> C[C@H]1CN([C@@H](C)CO)C(=O)c2cc(-c3ccc(C(=O)N(C)C)cc3)cnc2O[C@@H]1CN(C)C
  4 | -14[16.7 µM]
> CO[C@@H]1CN(C)C(=O)c2ccc(NC(=O)c3ccccc3F)cc2OC[C@@H](C)N(CC2CC2)C[C@H]1C
  5 | -14[16.7 µM]
> C[C@H](CO)N1C[C@H](C)[C@H](CN(C)C(=O)Nc2cccc(F)c2)OCc2cnnn2CCCC1=O
  -14 | -1
> Cc1noc(C)c1S(=O)(=O)N(C)C[C@H]1OCCCC[C@@H](C)Oc2ccc(NC(=O)Nc3cccc4ccccc34)cc2C(=O)N([C@H](C)CO)C[C@@H]1C
  -8 | -15[16.7 µM]
> COc1ccc(NC(=O)Nc2ccc3c(c2)C(=O)N([C@@H](C)CO)C[C@@H](C)[C@H](CN(C)C(=O)Nc2ccc(C(F)(F)F)cc2)OCCCC[C@H](C)O3)cc1
  -13 | 1[16.7 µM]
> COCC(=O)Nc1ccc2c(c1)C(=O)N(C)C[C@H](OC)[C@H](C)CN(C(=O)COC)[C@@H](C)CO2
  -3 | -9[16.7 µM]
> COCC(=O)N(C)C[C@H]1Oc2cc(C#Cc3ccccc3)ccc2S(=O)(=O)N([C@H](C)CO)C[C@@H]1C
  0 | 10[16.7 µM]

Brought forward from above: three entries, then new ones.
Order of values – UUG fidelity | HIV Env fusion
> COc1ccc(NC(=O)Nc2ccc3c(c2)C(=O)N([C@@H](C)CO)C[C@@H](C)[C@H](CN(C)C(=O)Nc2ccc(C(F)(F)F)cc2)OCCCC[C@H](C)O3)cc1
  -13 | 1[16.7 µM]
> COCC(=O)Nc1ccc2c(c1)C(=O)N(C)C[C@H](OC)[C@H](C)CN(C(=O)COC)[C@@H](C)CO2
  -3 | -9[16.7 µM]
> COCC(=O)N(C)C[C@H]1Oc2cc(C#Cc3ccccc3)ccc2S(=O)(=O)N([C@H](C)CO)C[C@@H]1C
  0 | 10[16.7 µM]
> C[C@H](CO)N1C[C@H](C)[C@@H](CN(C)CC2CCCCC2)Oc2ccc(NS(=O)(=O)c3ccc(F)cc3)cc2C1=O
  3 | -12[16.7 µM]
> C[C@H](CO)N1C[C@H](C)[C@H](CN(C)S(=O)(=O)c2ccccc2)Oc2ccc(NC(=O)CCCCCC(=O)Nc3ccccc3N)cc2CC1=O
  -10 | 57*[16.7 µM]
> Cc1ccc(S(=O)(=O)N(C)C[C@@H]2OCc3cn(nn3)CCCC(=O)N([C@H](C)CO)C[C@@H]2C)cc1
  -5 | 15[16.7 µM]
> COc1ccc(NC(=O)Nc2ccc3c(c2)C(=O)N([C@@H](C)CO)C[C@H](C)[C@@H](CN(C)Cc2ccc(C(F)(F)F)cc2)O3)cc1
  7 | 2[16.7 µM]
> COc1ccc(COCC23N=C4SCc5ccccc5CN4[C@H](c4ccccc4O2)[C@H]3CO)cc1
  -21 | 6[16.7 µM]
> C[C@@H]1CCCCO[C@H](CN(C)C(=O)Nc2ccc(F)cc2)[C@H](C)CN([C@@H](C)CO)C(=O)c2cc(NS(C)(=O)=O)ccc2O1
  3 | -13[16.7 µM]
> C/C=C/c1ccc2c(c1)O[C@@H](CN(C)C(=O)C1CCOCC1)[C@H](C)CN([C@H](C)CO)S2(=O)=O
  84 | 10[16.7 µM]
> COc1ccc(CN(C)C[C@H]2Oc3ccc(NC(=O)C4CCCCC4)cc3CC(=O)N([C@@H](C)CO)C[C@@H]2C)cc1
  1 | -16[16.7 µM]
> C[C@H]1CCCCO[C@H](CN(C)C(=O)Nc2ccc3c(c2)OCO3)[C@@H](C)CN([C@@H](C)CO)C(=O)c2cc(NS(=O)(=O)c3ccccc3)ccc2O1
  1 | -7[16.7 µM]
> CO[C@@H]1CN(C)C(=O)c2ccc(NS(C)(=O)=O)cc2OC[C@@H](C)N(CCC(F)(F)F)C[C@@H]1C
  -4 | -9[16.7 µM]
> COc1cccc(S(=O)(=O)N[C@@H]2C=C[C@@H](CC(=O)NCc3ccc(F)cc3)O[C@@H]2CO)c1
  -2 | 18[16.7 µM]
> CC(=O)N[C@@H]1C=C[C@H](CC(=O)NCC2CCCCC2)O[C@@H]1CO
  -18 | 17[16.7 µM]
> COc1ccc(-c2ccc3c(c2)O[C@@H](CN(C)Cc2cccnc2)[C@H](C)CN([C@@H](C)CO)S3(=O)=O)cc1
  -3 | 4[16.7 µM]
> N#C[C@H]1[C@@H](c2ccc(C#Cc3cccc(F)c3)cc2)[C@H](CO)N1C(=O)C1CC1
  0 | 9[16.7 µM]
> C[C@H]1CCCCO[C@H](CN(C)C(=O)Nc2cccc3ccccc23)[C@@H](C)CN([C@@H](C)CO)C(=O)c2cc(NC(=O)Cc3ccccc3)ccc2O1
  10 | 41[16.7 µM]
> Cc1noc(C)c1S(=O)(=O)N(C)C[C@@H]1Oc2ccc(NS(=O)(=O)c3cn(C)cn3)cc2CC(=O)N([C@@H](C)CO)C[C@@H]1C
  -7 | -43[16.7 µM]
> C[C@@H]1CN([C@H](C)CO)C(=O)c2cc(C#CCC3CCCC3)cnc2O[C@H]1CN(C)C(=O)CN(C)C
  16 | -12[16.7 µM]
> CCC(=O)Nc1ccc2c(c1)C(=O)N(C)[C@@H]1CC[C@@H](CC(=O)NCCN3CCCCC3)O[C@@H]1CO2
  0 | -12[16.7 µM]
> COCC(=O)N(C)C[C@@H]1Oc2cc(C#CC3CC3)ccc2S(=O)(=O)N([C@@H](C)CO)C[C@@H]1C
  14 | 10[16.7 µM]
> C[C@H]1CCCCO[C@@H](CN(C)C)[C@@H](C)CN([C@@H](C)CO)C(=O)c2cc(NS(=O)(=O)c3ccc(Cl)cc3)ccc2O1
  17 | -31[16.7 µM]
> C[C@@H]1CN([C@@H](C)CO)C(=O)c2cc(N(C)C)ccc2O[C@@H](C)CCCCO[C@H]1CN(C)C(=O)Nc1cccc2ccccc12
  3 | 6[16.7 µM]
> COc1ccc(S(=O)(=O)Nc2cccc3c2O[C@@H](CN(C)C(=O)NC(C)C)[C@@H](C)CN([C@H](C)CO)C3=O)cc1
  -1 | -11[16.7 µM]
> C[C@H]1CN([C@@H](C)CO)C(=O)c2cc(NC(=O)Cn3cnnn3)ccc2O[C@@H]1CN(C)CC1CCCCC1
  -7 | 8[16.7 µM]
> CCC(=O)N[C@H]1CC[C@@H](CC(=O)OC)O[C@H]1CO
  -3 | 7[16.7 µM]
> C[C@@H]1CN([C@@H](C)CO)C(=O)c2cc(NC(=O)Nc3cccc4ccccc34)ccc2O[C@@H](C)CCCCO[C@H]1CN(C)C
  20 | 8[16.7 µM]
> O=C(C[C@@H]1C=C[C@H](NC(=O)NC2CCCC2)[C@H](CO)O1)NCc1ccc(F)cc1
  -5 | 0[16.7 µM]
> COCC#Cc1ccc2c(c1)O[C@@H](CN(C)Cc1ccncc1)[C@@H](C)CN([C@H](C)CO)S2(=O)=O
  -12 | -16[16.7 µM]
> C[C@H](CO)N1C[C@H](C)[C@H](CN(C)Cc2ccc(Cl)c(Cl)c2)Oc2c(NC(=O)C3CC3)cccc2C1=O
  -5 | -143[16.7 µM]
> COc1cccc(S(=O)(=O)N(C)C[C@@H]2Oc3ncc(C#CC(C)(C)O)cc3C(=O)N([C@H](C)CO)C[C@@H]2C)c1
  3 | 0[16.7 µM]
> CN(C)CC(=O)N[C@@H]1C=C[C@H](CC(=O)NCCN2CCCCC2)O[C@H]1CO
  5 | -2[16.7 µM]
> Cc1ccc(S(=O)(=O)N(C)C[C@@H]2Oc3ccc(NC(=O)C4CCCCC4)cc3CC(=O)N([C@@H](C)CO)C[C@@H]2C)cc1
  -3 | 79*[16.7 µM]
> C[C@H]1CN([C@@H](C)CO)C(=O)c2cc(NC(=O)Cc3cn(C)c4ccccc34)ccc2O[C@H]1CN(C)S(=O)(=O)c1ccc(F)cc1
  -14 | -28[16.7 µM]
> CO[C@@H]1CN(C)C(=O)c2cc(NS(=O)(=O)c3ccccc3F)ccc2OC[C@H](C)NC[C@@H]1C
  -12 | 1[16.7 µM]
> O=C(C[C@@H]1CC[C@H](NC(=O)CC2CC2)[C@H](CO)O1)NCC(F)(F)F
  -11 | 10[16.7 µM]
> C[C@H](CO)N1C[C@H](C)[C@@H](CN(C)S(=O)(=O)c2ccccc2)OCCCC[C@H](C)Oc2ccc(NC(=O)Nc3ccc(F)cc3)cc2C1=O
  -6 | -1[16.7 µM]
> COc1ccc(-c2ccc([C@H]3[C@@H](C#N)N(C(=O)C4CCC4)[C@H]3CO)cc2)cc1
  -5 | -8[16.7 µM]
> COc1cccc(-c2cnc3c(c2)C(=O)N([C@@H](C)CO)C[C@H](C)[C@H](CN(C)Cc2ccc(F)cc2)O3)c1
  10 | -3[16.7 µM]
> CN(C)CC#Cc1ccc([C@H]2[C@@H](CO)N(C(=O)C3CCCC3)[C@H]2C#N)cc1
  -7 | -6[16.7 µM]

Entries of single compounds, quoted from the list. Order of screens: UUG fidelity | HIV Env fusion
`Cc1ccc(S(=O)(=O)N(C)C[C@@H]2Oc3ccc(NC(=O)C4CCCCC4)cc3CC(=O)N([C@@H](C)CO)C[C@@H]2C)cc1` is listed with -3 | 79*[16.7 µM]
`CO[C@@H]1CN(C)C(=O)c2cc(NS(=O)(=O)c3ccccc3F)ccc2OC[C@H](C)NC[C@@H]1C` is listed with -12 | 1[16.7 µM]
`C[C@H]1CN([C@@H](C)CO)C(=O)c2cc(NC(=O)Cc3cn(C)c4ccccc34)ccc2O[C@H]1CN(C)S(=O)(=O)c1ccc(F)cc1` is listed with -14 | -28[16.7 µM]
`O=C(C[C@@H]1CC[C@H](NC(=O)CC2CC2)[C@H](CO)O1)NCC(F)(F)F` is listed with -11 | 10[16.7 µM]

Bioassay records deposited in PubChem by Broad Institute.
